YopH inh: YopH (Yersinia) phosphatase inhibition; fluorescence Ex485/Em525; inhibition, %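 (about 10 µM by stock and volumes)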; 0.16% of 140,000 active; AID 898;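 active = inhibition of 50% or more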;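 also: controls were vehicle for no effect and minimum signal wells for full effect; inactives centre near -20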
Mtb growth: M. tuberculosis H37Rv growth inhibitors, H37Rv strain (AID 1626); M. tuberculosis H37Rv growth inhibition; higher % means a stronger effect; inhibition, % at 10 µM; hits with a dose series show IC50 in µM; 0.95% of 220,000 active;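 active = confirmed in a dose series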;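 also: bacteria incubated seven days before Alamar blue readout; 0% = bacteria only wells and 100% = bacteria with antibiotic wells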
RecA intein inh: inhibitors of M. tuberculosis RecA intein splicing. P9WHJ3. cell-free RecA intein splicing, fluorescence. inhibition, %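 (about 9 µM by stock and volumes)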. 0.75% of 290,000 active; in the data active = inhibition above about 30%;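 also: 0% = vehicle wells and 100% = reference inhibitor control wells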
Target sequence (P9WHJ3 whole entry, looked up): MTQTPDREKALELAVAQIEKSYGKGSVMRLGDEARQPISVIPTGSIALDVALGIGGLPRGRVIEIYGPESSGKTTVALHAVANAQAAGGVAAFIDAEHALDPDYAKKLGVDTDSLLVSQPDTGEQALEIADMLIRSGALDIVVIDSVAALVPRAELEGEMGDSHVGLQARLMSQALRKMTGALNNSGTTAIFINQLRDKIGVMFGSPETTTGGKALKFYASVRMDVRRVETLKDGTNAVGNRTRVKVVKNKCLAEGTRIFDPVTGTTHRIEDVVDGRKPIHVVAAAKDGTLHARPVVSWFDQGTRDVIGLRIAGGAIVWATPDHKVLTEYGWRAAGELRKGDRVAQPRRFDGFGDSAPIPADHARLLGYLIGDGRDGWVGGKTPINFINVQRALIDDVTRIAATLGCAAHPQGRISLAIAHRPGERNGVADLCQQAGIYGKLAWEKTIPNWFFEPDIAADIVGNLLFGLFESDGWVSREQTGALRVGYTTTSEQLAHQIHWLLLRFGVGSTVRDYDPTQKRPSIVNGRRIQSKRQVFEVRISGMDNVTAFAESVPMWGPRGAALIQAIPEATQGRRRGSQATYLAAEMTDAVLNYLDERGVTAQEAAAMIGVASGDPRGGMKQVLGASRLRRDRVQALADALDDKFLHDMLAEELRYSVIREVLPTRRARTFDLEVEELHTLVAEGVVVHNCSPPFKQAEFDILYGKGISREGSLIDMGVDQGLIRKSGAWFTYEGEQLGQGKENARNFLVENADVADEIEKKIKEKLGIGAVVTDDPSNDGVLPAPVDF
Arbovirus inh: arbovirus infection inhibition | arbovirus infection cell-based antiviral screen | inhibition, % at 10 µM | 0.37% of 200,000 active;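 active = inhibition from about 30%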;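 also: bluetongue infection of BSR cells; cell survival read as ATP light after 72 h; 0% = infected wells without compound and 100% = uninfected wells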
Mtb betalactam: beta-lactam sensitization of Mtb H37Rv; 0.27% of 330,000 active; M. tuberculosis H37Rv growth with meropenem, percent inhibition; hits of this screen are not shown here; AID 434955; inhibition, % at 25 µM;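 active = about 74% or more and at least 40 points above the plate without the antibiotic, then above 30% in a dose series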;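 also: growth measured after seven days incubation then overnight dye step; 0% = bacteria only wells and 100% = bacteria with antibiotic; twin plates without the antibiotic show which effects depend on it; some results filed as inactive read as strong as hits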
Arbovirus inh repeat: further read-out of Arbovirus inh, marked with its call; inhibition, %; measured here: 10K subset replicate screen; many hits read low in the repeat;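 first of two repeat runs on a subset; 0% = infected and 100% = uninfected wells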
An asterisk follows results filed as active; x = no result given.

SMILES	YopH inh	Mtb growth	RecA intein inh	Arbovirus inh	Mtb betalactam	others
Nc1[nH]n(-c2ccccc2)c(=O)c1N=Nc1ccccc1[N+](=O)[O-]	-18	-8%	2.6	-11	-4
COc1ccc(C(=O)N2CCN(c3ncnc4c(-c5ccccc5)nsc34)CC2)cc1	-31	x	3.3	-1	x
COc1ccc(OC)c(N(CC(=O)NCc2ccccc2)S(=O)(=O)c2ccc(OC)c(OC)c2)c1	x	x	-1.4	x	-1
CN1CCCN=C1/C=C/c1cccs1	x	x	-0.9	x	3
CCC(C)NC(=O)CCc1c(C)nc2c(c(C)nn2-c2ccccc2)c1C (centres undefined)	x	x	-0.6	x	5
Cc1occc1C(=O)NCc1nc(-c2ccccc2)no1	x	x	1.7	x	-3
COc1ccc(S(=O)(=O)Nc2c(C)c(C)cc3c2ncn3C)cc1	x	x	-0.8	4	2
Cc1ccc(SCC(=O)Nc2nccs2)cc1	x	6%	-1.0	6	3
COc1ccc(NS(=O)(=O)c2cccc(C(=O)NNC(=O)CNC(=O)c3ccccc3)c2)cc1	x	x	-0.9	x	-15
CCOc1ccc(S(=O)(=O)N/N=C(\C)C2CCCCC2)cc1	-24	0%	-0.8	-2	-4
O=C(Oc1cc(-c2ccccc2)no1)c1cccc(C(F)(F)F)c1	-36	2%	3.8	3	-2
CCC(=O)N(CCC(Cc1ccccc1)c1ccc2c(c1)OCO2)Cc1ccccc1F (centres undefined)	-37	x	19	-24	-3
CCOc1cc(C2C(C#N)=C(N)OC(C)=C2C(C)=O)cc(Br)c1O (centres undefined)	-34	-5%	0.2	4	1
COc1cccc(/C=N/NC(=O)CCn2cnc3ccccc32)c1	x	-5%	-0.3	x	-2
Cc1sc2ncnc(Nc3ccc(O)cc3)c2c1C	x	-13%	14	x	-15
Cc1ccc(OCc2cc(C(=O)N(C)Cc3cnn(-c4ccccc4C)c3)no2)cn1	x	x	1.9	x	10
C/C=C\C=C\C(=O)N1CC2(CC(c3cccc(NC(=O)CC(c4ccccc4)c4ccccc4)c3)=NO2)C[C@H]1C(N)=O (some centres undefined)	x	-4%	12	x	87
Cc1ccc(S(=O)(=O)NCC(=O)NCC(=O)OCc2c(F)cccc2Cl)cc1	x	-4%	-1.2	5	-2
O=C(Nc1ccc2c(c1)OCCO2)c1cc(-c2ccccn2)nc2ccc(Br)cc12	x	-1%	-1.1	-15	-3
COCCCNC(=O)c1cc(C(=O)Cc2ccccc2)c[nH]1	x	-4%	x	1	4
Cc1ccc(-c2[nH]nc(N)c2N=Nc2cccc(Cl)c2C)cc1	-3	0%	x	-30	x
CCC(/C=N/NC(=O)CCCCC(=O)N/N=C/C(CC)CC)CC	-28	-5%	-2.2	-1	0
COc1cccc(C2=NN(C(C)=O)C(c3cccs3)C2)c1 (centres undefined)	x	x	0.3	x	-1
CCCOc1ccc(CSCCNC(=S)Nc2ccccc2)cc1	-35	-3%	6.7	0	62
COc1ccc(CCNC(=O)C2CC(c3ccccc3C(F)(F)F)=NO2)cc1 (centres undefined)	x	0%	-0.1	x	-3
CCOc1ccccc1OCCn1nnc2ccccc21	-16	0%	-9.4	-1	4
CCOC(=O)C(/C(N)=N/C(=O)Nc1ccccc1)=C(\C)O	-52	-8%	-2.7	-5	4
O=C(c1ccc2c(c1)OCO2)N1CCC2(CC1)Oc1ccc(F)cc1C(=O)C21CC(c2ccccc2)=NO1 (centres undefined)	x	7%	7.4	x	-2
C/C(CC(=O)Nc1cccc2c1CCCC2)=N\NC(=O)COc1ccccc1	-31	1%	0.0	3	6
COc1cccc(/C=C/C(=O)c2ccc[nH]2)c1	-3	x	4.7	-15	2
Cc1ccc(CC(=O)NC2CCN(Cc3ccccc3)CC2)cc1	x	x	-1.5	x	-6
O=C(O)CCCC(=O)Nc1nncs1	x	-5%	0.6	-3	1
O=C(CN(C(=O)c1csnn1)c1ccc(F)c(Cl)c1)NCc1ccccc1	x	x	3.6	x	-2
Cc1cc(Nc2nn(C)c(N)c2C#N)ccc1F	x	2%	-0.1	0	4
Nc1nonc1C(=O)N/N=C/c1ccc(Br)o1	x	-10%	-4.0	x	69
O=C(Cn1cncn1)NCCC(c1ccccc1)c1ccccc1	x	9%	1.5	0	-13
CS(=O)(=O)N(CC(=O)N1CCc2ccccc2C1)c1ccccc1Br	x	x	0.4	x	-6
Cc1c(C(=O)N2CCCCCC2)nnn1-c1nonc1N	-4	-2%	-1.7	4	-8
Cc1ccc2c(c1)c(-c1csc(N)n1)c(C)n2C	x	x	-0.9	x	54
CCN1C(=O)N(CC)C(O)(c2ccccc2)C1(O)c1ccccc1 (centres undefined)	-26	-10%	-1.7	-2	-8	Arbovirus inh repeat=0
CNc1oc(Cc2ccccc2)nc1S(=O)(=O)c1ccc(Cl)cc1	-45	1%	1.7	3	-4
CCC(=O)c1ccc(OCC(O)CN2CCN(c3ccc(F)cc3)CC2)cc1 (centres undefined)	-18	0%	-0.7	-1	-9
CC(=O)c1c(C)nc(-c2ccccc2)nc1N	x	-1%	0.8	-6	-4
COc1cc(OC)cc(N2CCN(S(=O)(=O)c3ccc(-n4cnnn4)cc3)CC2)c1	x	x	0.1	x	1
CC(OC(=O)c1ccncc1)C(=O)Nc1cccc(Cl)c1 (centres undefined)	-53	-14%	-3.8	6	-6
CCOc1c2ccoc2nc2c(OC)c(OC)ccc12	x	-17%	-0.4	-4	-6
Cc1ccc(NS(=O)(=O)c2c(C)[nH]c(C)c2C(=O)N2CCCCC2)c(Br)c1	x	x	1.7	x	-5
O=S(=O)(c1ccc(Cl)s1)N1CCC(Cc2ccccc2)CC1	-21	-6%	12	11	-2
O=C(O)COc1ccccc1/C=N/NC(=O)c1cc(-c2ccc(Cl)cc2)nc2ccccc12	x	4%	8.5	x	3
Cn1c(SCCOc2ccccc2F)nc2ccccc2c1=O	x	10%	0.9	15	6

Next section; it opens with the 7 that closed the last part.
SMILES	YopH inh	Mtb growth	RecA intein inh	Arbovirus inh	Mtb betalactam	others
COc1cc(OC)cc(N2CCN(S(=O)(=O)c3ccc(-n4cnnn4)cc3)CC2)c1	x	x	0.1	x	1
CC(OC(=O)c1ccncc1)C(=O)Nc1cccc(Cl)c1 (centres undefined)	-53	-14%	-3.8	6	-6
CCOc1c2ccoc2nc2c(OC)c(OC)ccc12	x	-17%	-0.4	-4	-6
Cc1ccc(NS(=O)(=O)c2c(C)[nH]c(C)c2C(=O)N2CCCCC2)c(Br)c1	x	x	1.7	x	-5
O=S(=O)(c1ccc(Cl)s1)N1CCC(Cc2ccccc2)CC1	-21	-6%	12	11	-2
O=C(O)COc1ccccc1/C=N/NC(=O)c1cc(-c2ccc(Cl)cc2)nc2ccccc12	x	4%	8.5	x	3
Cn1c(SCCOc2ccccc2F)nc2ccccc2c1=O	x	10%	0.9	15	6
CC(OC(=O)c1cccc(Cl)c1)C(=O)NC1CCCCC1C (centres undefined)	x	x	0.2	x	-19
COc1ccc(-c2c(C(F)(F)F)nn(C)c2NC(=O)CSCC(=O)O)cc1	x	-5%	2.0	x	-6
CCN1/C(=C2\C(=O)N(C)C(=S)N2C)C=Cc2cc(C)ccc21	25	-5%	-6.8	-5	19
CCN1CCN(C(=O)c2cn(CC)c3ccc(S(=O)(=O)N(C)C)cc3c2=O)CC1	-7	-11%	0.8	3	0	Arbovirus inh repeat=-1
Cc1cccc(N2CCN(C(=O)CNC(=O)c3ccccc3)CC2)c1C	x	x	-0.5	x	-1
COc1ccc(NC(=O)CCC(=O)N2CCOCC2)c([N+](=O)[O-])c1	x	x	-2.5	x	-10
CCOc1ccc(OCC)c(NC(=O)CN2CCN(CC)CC2)c1	39	2%	2.7	-3	4
O=C(CNS(=O)(=O)c1ccc(F)cc1)N1CCOCC1	x	x	0.9	x	1
O=C(c1ccc(N2CCN(C(=O)c3ccccc3Br)CC2)cc1)c1cccc(F)c1	x	x	13	x	6
CC(C)c1nc(SCC(=O)Nc2cccc(C(=O)O)c2)c2c3c(sc2n1)CCCC3	x	x	6.3	x	-2
Cc1ccc(C)c(N(CC(=O)N2CCCC2)S(C)(=O)=O)c1	x	x	2.0	x	-2
O=C(Nc1ccc(F)cc1)C1CCCN1S(=O)(=O)c1ccc(Br)cc1 (centres undefined)	x	x	-0.8	x	-9
COc1cc2nc(CN(C)Cc3ccc(OC)c(OC)c3OC)[nH]c(=O)c2cc1OC	x	-10%	0.6	6	5
CCC1CCCCN1S(=O)(=O)Cc1ccccc1Cl (centres undefined)	x	-3%	6.1	2	-3
Nc1ccc(Br)cc1-c1nc2ccccc2[nH]c1=O	x	-2%	-3.1	18	2
O=C(c1ccc(S(=O)(=O)N2CCCCCC2)cc1)N1CCN(c2ccccc2)CC1	x	x	-1.7	x	-3
C=CCn1c(SCC(=O)c2ccccc2)nnc1-c1ccc2c(c1)OCO2	4	x	x	-4	-4
O=C(CN1C(=O)NC2(CCCC2)C1=O)Nc1nc2ccc(F)cc2s1	x	x	-1.2	x	-5
COc1ccc(OC)c(CCNC(=O)c2sc3nc4n(c(=O)c3c2C)CCC4)c1	x	x	0.6	x	-9
CC(=O)c1sc(N/N=C/c2ccc(C(C)C)cc2)nc1C	x	12%	-0.7	0	58

Part of the list above in order of number of heavy atoms, smallest number first.
SMILES	YopH inh	Mtb growth	RecA intein inh	Arbovirus inh	Mtb betalactam	others
Nc1ccc(Br)cc1-c1nc2ccccc2[nH]c1=O	x	-2%	-3.1	18	2
Cc1ccc(C)c(N(CC(=O)N2CCCC2)S(C)(=O)=O)c1	x	x	2.0	x	-2
O=C(Nc1ccc(F)cc1)C1CCCN1S(=O)(=O)c1ccc(Br)cc1 (centres undefined)	x	x	-0.8	x	-9

Next section
SMILES	YopH inh	Mtb growth	RecA intein inh	Arbovirus inh	Mtb betalactam	others
O=C1CCCc2c1cc(C(=O)NC1CCSC1=O)c(=O)n2-c1ccccc1 (centres undefined)	5	-5%	-0.1	7	-4
COC(=O)c1ccc(S(=O)(=O)N2CCc3ccccc32)cc1	x	x	1.4	x	-8
CC(=O)Nc1cc(-c2ccccc2)ccc1O	-38	-3%	-2.4	-9	3
COc1cc2c(cc1C1C(C#N)=C(N)OC3=C1C(=O)CC(C)(C)C3)OCO2 (centres undefined)	x	x	-0.1	x	-1
O=C(CN1CCN(S(=O)(=O)/C=C/c2ccccc2)CC1)NC(=O)NCc1ccco1	-20	-9%	0.3	9	-17
O=C(NNc1ccc(C2CCCCC2)cc1)C(O)(c1ccccc1)c1cccs1 (centres undefined)	-36	4%	9.5	-32	45
CNC(=S)N(CCc1ccc(OC)c(OC)c1)C1CC(=O)N(c2ccccc2)C1=O (centres undefined)	x	-2%	2.2	x	-1
C=CCOc1cccc(CNn2nnnc2N)c1	x	-7%	1.4	3	-2
COc1ccc(C)cc1NC(=O)C(C)N(c1ccc(C)cc1)S(C)(=O)=O (centres undefined)	-4	-2%	2.8	9	2
COc1cccc(-c2c(C(=O)N/N=C(\C)c3cccnc3)nnn2-c2nonc2N)c1	x	x	-0.5	x	0
CCOC(=O)c1c(C)c(C(=O)NC2CCCCC2)c(C)n1CC	-36	x	1.7	-3	x
COC(=O)c1sc(-c2ccccc2)cc1NC(=O)c1ccc(F)cc1	-24	-4%	1.3	-16	6
Cc1ccccc1OCC(=O)N1CCc2ccccc2C1	x	x	-0.1	x	0
Cc1nnc(NC(=O)C(C)Sc2nnc(CCNC(=O)c3ccccc3F)n2C)s1 (centres undefined)	x	x	0.0	x	-7
COc1ccc(-c2c(C)sc(NC(=O)c3ccnn3C)c2C#N)cc1	-16	2%	-0.7	-11	2
Cc1cc(C)n2nc(SC(C)C(=O)NCc3ccco3)nc2n1 (centres undefined)	-13	1%	-0.5	8	-8
CC(NC(=O)c1ccc([N+](=O)[O-])o1)C12CC3CC(CC(C3)C1)C2 (centres undefined)	x	x	4.5	x	100
COc1ccc(F)cc1C(=O)C1CCCN(Cc2ccc3c(c2)OCCO3)C1 (centres undefined)	x	8%	1.0	-12	6
CCOC(=O)Cn1c2ccccc2c2nc(C)sc21	x	61%	-0.3	-4	97
CC(=O)Nc1cccc(OCc2cnc(Cl)s2)c1	x	73%	-1.3	1	32
CCOc1ccccc1CN1CCN(Cc2csc(C(C)=O)c2)CC1CCO (centres undefined)	x	-3%	0.2	-3	3
C=CCOc1ccc(C(=O)NC2CCCCC2)cc1	-13	6%	0.7	-1	0
O=C(NCc1n[nH]c(=S)n1-c1ccccc1)c1ccco1	9	-3%	-0.1	0	-4
Cc1ncsc1C(=O)N1N=C2/C(=C/c3ccccc3)CCCC2C1c1ccccc1 (centres undefined)	-48	x	27	-31	50
CN1CCN(C(=O)C2=C[C@@H](C3CCCCC3)C[C@@H](OCCCCO)O2)CC1	x	-7%	2.3	3	-1
COc1ccc2cc3cc(C(=O)NCc4ccco4)oc3nc2c1	-17	-8%	-0.1	-24	55
O=C1NC(=O)C2(COC(c3ccccc3Cl)OC2)S1 (centres undefined)	-13	4%	-1.1	-9	-5

Source: PubChem BioAssay

An excerpt (hit frequency here may not be typical).
